# UCH37 DUB inh: blocks the human deubiquitinase UCH37; purified proteasome/UCH37, Ub-AMC cleavage fluorescence; inhibition, % (concentration not given with the values); 0.33% of 330,000 active;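 active = mean of two replicates above 20%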;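 note: 0% = compound-free wells with enzyme and 100% = wells lacking proteasome; stock transfer was 100 nL into about 20 µL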
# Target sequence (Q9Y5K5 whole entry, looked up): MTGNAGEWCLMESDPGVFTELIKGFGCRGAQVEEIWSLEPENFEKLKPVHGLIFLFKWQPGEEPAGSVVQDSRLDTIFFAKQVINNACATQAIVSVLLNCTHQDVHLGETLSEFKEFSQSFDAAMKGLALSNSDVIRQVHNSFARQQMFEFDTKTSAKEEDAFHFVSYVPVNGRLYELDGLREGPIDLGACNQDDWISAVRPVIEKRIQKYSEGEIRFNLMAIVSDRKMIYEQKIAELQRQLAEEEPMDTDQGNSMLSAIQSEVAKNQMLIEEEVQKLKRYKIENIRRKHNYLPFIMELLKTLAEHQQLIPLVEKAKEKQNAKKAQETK
#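 Signal – fluorescence, ex 355 nm, em 460 nm · System – Proteasome-bound UCH37 · Input – 0.15 nM proteasome as dispensed · Timing – 30 min preincubation with enzyme, 25 min cleavage at room temperature · Read-out basis – percent inhibition of cleavage signal versus uninhibited and no-proteasome wells · Medium – Tris-HCl pH 7.4 with ATP-MgCl2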
# Beta apoptosis: blocks beta cell apoptosis; INS-1E cytokine-induced death, ATP luminescence, 48 h; percent of positive-control rescue, neutral wells zero; 0.8% of 300,000 active; protection from apoptosis, % (concentration not given with the values);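 active = all replicates at 75% or more, or half of them and the mean; inconclusive = half reach 75% but not the mean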;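 note: 0% = cytokine-treated negative control wells and 100% = positive control rescue; higher means more ATP so stronger rescue from cytokine killing; wells of about 40 µL received 100 nL stock; the first replicate is given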
# Ecoli growth: inhibitors of Escherichia coli growth; 0.21% of 330,000 active; OD600, 23 h; hits give low values; OD600 absorbance (concentration not given with the values);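 active = OD600 absorbance below the run mean of sample wells minus 3.6 SD, in any replicate, cut at about 0.56 in these data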;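 note: stock transfer was 300 nL into about 60 µL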
# Ecoli rRNA inh: inhibitors of bacterial rRNA selective over humanized ribosomes; E. coli WT GFP vs humanized-ribosome RFP mutants, fluorescence, 24 h; hits give low values; DMSO median 0, no signal -100; GFP signal change (wild-type ribosome), % (concentration not given with the values); 1.6% of 350,000 active;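 active = significant combined selectivity score with lowered wild-type GFP, culture density cut under 30%, mutant RFP and density less affected; inactive = any of these conditions unmet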; note: one replicate is shown; some compounds called inactive have numbers as strong as hits
# MLL AF4-AF9 inh: MLL-AF4/AF9 protein interaction inhibition | P42568 | AlphaScreen, biotin-AF4 peptide binding to FLAG-AF9 | AID 651704 | 0.47% of 350,000 active | inhibition, % at 10 µM;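 active = every replicate reaching a set inhibition limit, whatever the replicate mean, cut at about 25% in these data; inconclusive = mean inhibition reaches that limit but some replicates miss it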;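 note: 0% = plate neutral control median and 100% = total signal loss; the record names both 10 and 1 µM as test concentration; the first replicate is given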
# Target sequence (P42568 whole entry, looked up): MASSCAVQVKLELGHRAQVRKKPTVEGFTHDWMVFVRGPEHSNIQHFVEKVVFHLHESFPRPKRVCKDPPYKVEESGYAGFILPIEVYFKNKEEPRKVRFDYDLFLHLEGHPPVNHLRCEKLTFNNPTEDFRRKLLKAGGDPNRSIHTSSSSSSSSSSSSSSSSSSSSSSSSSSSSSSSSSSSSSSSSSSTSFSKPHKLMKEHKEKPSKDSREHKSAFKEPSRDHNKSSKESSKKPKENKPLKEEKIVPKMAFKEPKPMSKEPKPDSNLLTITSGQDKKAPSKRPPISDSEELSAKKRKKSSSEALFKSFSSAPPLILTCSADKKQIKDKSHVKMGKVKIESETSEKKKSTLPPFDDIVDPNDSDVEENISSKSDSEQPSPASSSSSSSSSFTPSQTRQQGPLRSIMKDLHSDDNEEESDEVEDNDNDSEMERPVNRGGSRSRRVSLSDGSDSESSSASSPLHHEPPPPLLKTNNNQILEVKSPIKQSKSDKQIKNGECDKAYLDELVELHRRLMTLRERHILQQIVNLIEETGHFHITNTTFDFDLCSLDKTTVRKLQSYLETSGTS
# Bfl-1 A1 inh: inhibitors of the anti-apoptotic protein A1, read as caspase activation | 0.066% of 330,000 active | AID 2462 | caspase activation, % (test concentration not listed) | MEF A1-2A-BIM cells, Caspase-Glo 3/7 luminescence, 3 h; percent of clofoctol response, vehicle zero;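 active = over half of replicate activation scores above 10%, or exactly half above 10 with the replicate mean above 10; inconclusive = replicate mean below 10 yet half the replicates above 10; inactive = over half of replicates below 10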;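 note: wells of about 30 µL received 50 nL stock; many hits fall short of the cut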
# T cruzi inh: T. cruzi replication inhibition; T. cruzi beta-gal in NIH3T3, luminescence, 90 h; 1.4% of 300,000 active; inhibition, % (no concentration beside the values);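 active = mean inhibition across valid replicates above about 55%, limit read from the data; inconclusive = mean below that limit but half or more replicates reach it; inactive = mean below it, under half of replicates reach it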;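 note: signal also drops with host cell toxicity which is not excluded here; 0% = plate median of DMSO wells and 100% = zero luminescence signal; higher percent means less beta-gal luminescence so fewer parasites; stock transfer was 50 nL into about 50 µL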
# FGF22 binding: binders of recombinant human FGF22 by thermal shift | AID 651658 | SYPRO orange fluorescence; percent of sucrose octasulfate shift, DMSO zero | Q9HCT0 | 1.5% of 340,000 active | calls only at 9.99 µM;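 active = melting point raised past a set limit in the mean and every replicate; inconclusive = no clear call; three in four hits are not shown here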
# Target sequence (Q9HCT0 whole entry, looked up): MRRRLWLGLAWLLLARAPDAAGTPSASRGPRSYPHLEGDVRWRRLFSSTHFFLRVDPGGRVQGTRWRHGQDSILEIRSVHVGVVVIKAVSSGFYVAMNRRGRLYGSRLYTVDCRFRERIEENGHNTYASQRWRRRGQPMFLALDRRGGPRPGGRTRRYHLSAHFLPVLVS
# Ecoli rRNA inh OD600: further read-out of Ecoli rRNA inh, marked with its call; OD600 change, %; measured here: OD600 growth;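 optical density of the mix in the first replicate; 0 = DMSO median and -100 = no signal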
# Ecoli rRNA inh RFP: second read-out of Ecoli rRNA inh, no call of its own (marks repeat the call); RFP signal change, %; measured here: RFP humanized mutant strains;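 first replicate; 0 = DMSO median and -100 = no signal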
# * marks the source's active call; other numbers are inactive results; i = inactive; ? = inconclusive; nt = no result given. This is a subset (hit frequency here may not be typical).
SMILES,UCH37 DUB inh,Beta apoptosis,Ecoli growth,Ecoli rRNA inh,Ecoli rRNA inh OD600,Ecoli rRNA inh RFP,MLL AF4-AF9 inh,Bfl-1 A1 inh,T cruzi inh,FGF22 binding
O=C(Cc1cccs1)Nc1ccc([N+](=O)[O-])cc1,5.4,-4,0.65,5,5,1.2,-11,-0.1,1,i
C=CCOc1ccc(/C=C2\SC(=S)N(NS(=O)(=O)c3ccc(C)cc3)C2=O)cc1,5.9,-3,0.68,-24,-34,12,-2.5,1.1,-3,i
CCCC(c1nnnn1CS(=O)(=O)c1ccc(C)cc1)N1CCN(c2ccc(F)cc2)CC1 (centres undefined),1.2,4,0.77,nt,nt,nt,nt,-0.6,24,nt
Cc1ccccc1/C=C1\C(=O)Nc2ccc(F)cc21,4.6,-4,0.68,-5,-5,-2.3,8.5,1.1,-6,i
O=C(Nc1ccc(F)c(F)c1)C1CCCN(S(=O)(=O)c2cnc[nH]2)C1 (centres undefined),3.7,-8,0.7,nt,nt,nt,nt,-1.3,0,nt
O=C(/C=C/c1ccnc2ccccc12)c1cccs1,6.8,-5,0.66,-6,-5,0.8,1.0,-5.3,6,i
O=C(NCC1CCS(=O)(=O)C1)Oc1ccccc1 (centres undefined),2.5,-3,0.69,4,-1,2.3,nt,-1.4,-14,nt
CCN(CC)CCNC(=O)C1c2ccccc2C(=O)N(C)C1c1cn(C)c2ccccc12 (centres undefined),3.7,-2,0.77,nt,nt,nt,nt,-0.5,1,nt
CCCc1nnc(NC(=O)CCC(=O)N2CCN(Cc3ccc(Cl)cc3)CC2)s1,-0.6,-4,0.67,7,8,0.0,0.7,-1.1,39,i
CCOC(=O)N1CCN(C(=O)c2ccc(CNS(=O)(=O)c3ccc(C)cc3)cc2)CC1,3.0,0,0.74,nt,nt,nt,nt,-0.6,-10,nt
Cc1cc(C)n(-c2nc3ccccc3c(=O)n2OCC(C)C)n1,2.0,3,0.67,13,12,0.5,-1.2,0.7,5,i
CCCn1c(SCC(=O)NC2CC2)nnc1-c1ccccn1,3.1,-4,0.67,8,3,1.2,4.5,0.7,-4,i
CCOc1ccc(N2C(=O)/C(=C/c3ccccc3OCC(=O)OC)N(CC(=O)OC)C2=S)cc1,2.8,-6,nt,2,4,-2.5,-0.6,0.0,-14,i
CN1C(C(=O)Nc2ccc(F)cc2F)=CC(c2cccs2)=NS1(=O)=O,4.5,0,0.7,3,12,5.8,5.8,nt,1,i
O=C(NCCc1ccccc1Cl)C1CCC(=O)N(Cc2cccc(C(F)(F)F)c2)C1 (centres undefined),4.3,0,0.7,-2,-20,2.5,-1.2,-0.6,0,i
CC1Sc2ccc(S(=O)(=O)N(C)Cc3ccccc3)cc2NC1=O (centres undefined),2.9,-1,0.68,-24,-26,-3.7,-1.5,-1.6,-15,i
Cc1ccc(-c2cc(C(=O)O)n[nH]2)s1,-2.1,-5,0.71,14,16,2.4,-2.9,?,-1,i
O=C(OCn1nnc2ccccc2c1=O)c1ccc2ncsc2c1,4.2,nt,0.74,nt,nt,nt,nt,-0.3,0,nt
COc1ccc(S(=O)(=O)N2CCN(C(=O)c3cc4c(s3)CCC4)CC2)cc1,-2.6,-15,0.68,2,-16,2.7,-0.1,-1.4,nt,i
Cc1cccc(C)c1N1CCN(c2cc(Cl)nc(N)n2)CC1,1.1,-3,0.7,4,2,-9.1,-5.4,0.2,35,i
CCOc1ccccc1-n1c(SCC(=O)NC2CCCC2)nnc1-c1ccoc1C,-1.5,-6,0.72,nt,nt,nt,nt,-0.8,-7,nt
Cc1cc(N)c(C)c([N+](=O)[O-])c1C,1.7,1,0.63,nt,nt,nt,nt,-0.4,1,nt
COc1ccc(-c2csc(NC(=O)c3cc(C)oc3C)n2)cc1OC,1.6,5,0.69,-14,-23,2.4,1.5,-0.1,20,i
N#CC(C(=O)c1ccc(S(=O)(=O)N2CCCCCC2)cc1)c1nc2ccccc2[nH]1 (centres undefined),-170,15,0.69,17,16,2.7,nt,-0.1,20,nt
CCn1c(SCC(=O)NCCc2ccccc2)nc2sc3c(c2c1=O)CCN(C)C3,-143,-7,0.69,12,-10,0.6,16,0.2,nt,i
# The list goes on.
SMILES,UCH37 DUB inh,Beta apoptosis,Ecoli growth,Ecoli rRNA inh,Ecoli rRNA inh OD600,Ecoli rRNA inh RFP,MLL AF4-AF9 inh,Bfl-1 A1 inh,T cruzi inh,FGF22 binding
CS(=O)(=O)N(CCc1ccccc1)CC(=O)NCc1ccccn1,-1.2,-1,0.71,nt,nt,nt,nt,0.7,-3,nt
CC(=O)c1ccc(N2C(=NC(=O)CCC3CCCC3)SC3CS(=O)(=O)CC32)cc1 (centres undefined),1.8,-5,0.7,15,12,0.7,1.0,-2.6,8,i
O=C(COC(=O)CNC(=O)c1ccccc1)NCCc1ccccc1,0.5,-14,0.68,3,9,0.9,-6.3,0.6,-12,i
O=C1Cc2cc(S(=O)(=O)NCc3ccc(F)cc3)ccc2N1,2.0,-7,0.68,-5,-3,2.8,-2.8,-1.0,nt,i
CCN(CCS(=O)(=O)c1ccc(Br)cc1)Cc1nc2ccccc2c(=O)[nH]1,0.3,1,0.7,3,7,0.3,-2.5,-0.1,nt,i
Cc1ccc2c(Cl)cc(Cl)c(OCC(=O)Nc3cccc(S(N)(=O)=O)c3)c2n1,2.5,nt,0.73,nt,nt,nt,0.6,0.4,-16,i
CC(=O)N1CCC(C(=O)Nc2ccccc2)(N(Cc2ccccc2)C(=O)c2cccnc2)CC1,2.8,-2,0.66,nt,nt,nt,nt,-0.2,1,nt
COC(=O)c1c(NC(=O)C2=COCCO2)sc(C)c1C,-9.1,-5,0.7,-1,-14,0.7,1.2,0.2,1,i
CCOCCCNc1nc(C)nc2c1nnn2Cc1c(F)cccc1Cl,-3.1,4,0.68,3,3,-0.3,0.8,0.2,9,i
COC(=O)c1sccc1NC(=O)Nc1ccccc1F,5.8,-9,0.7,nt,nt,nt,-11,-4.1,-37,i
O=C(CCc1ccccc1)N1CCN(c2ccccn2)CC1,-1.9,-1,0.6,1,-7,-2.1,1.8,1.8,-3,i
N#C/C(=C\c1cccs1)C(=O)NCC1CCCO1 (centres undefined),12,0,0.71,nt,nt,nt,nt,-1.1,-24,nt
Cn1nc(-c2ccc(Cl)cc2)cc1NC(=O)CCCC(=O)O,6.9,-14,0.63,17,9,0.5,-3.0,0.7,15,i
CCNC(=S)NNC(=O)c1cc(-c2ccc(OCC)cc2)nc2ccccc12,-47,71,0.76,9,15,-2.9,9.7,-9.7,2,i
COc1ccc(Cn2c(N)c(S(=O)(=O)c3cccs3)c3nc4ccccc4nc32)cc1,-163,-5,0.67,nt,nt,nt,nt,0.2,10,nt
O=C(COc1ccc(F)cc1Br)NCc1nnc2ccccn12,6.0,-1,0.63,nt,nt,nt,-3.8,0.5,nt,i
O=C(O)CCc1ccc(-c2ccccc2)n1Cc1ccco1,-8.1,-2,0.72,nt,nt,nt,nt,0.7,-12,nt
O=C(O)c1cc(S(=O)(=O)N2CCN(S(=O)(=O)c3ccc4ccccc4c3)CC2)ccc1Br,4.9,-5,0.69,nt,nt,nt,-2.5,-0.4,nt,i
COc1ccc(OC)c(CCNC(=O)C(=O)Nc2ccc3nc4n(c(=O)c3c2)CCCCC4)c1,-2.9,8,0.63,-12,-1,-4.2,-15,0.5,21,i
Cn1c(C2CCCCC2)nc2ccccc21,1.8,3,0.57,-1,7,-5.3,-1.2,-0.5,-9,i
CCC(NC(=O)c1ccccc1NC(=O)C(C)(C)C)C(=O)N1CC(C)OC(C)C1 (centres undefined),2.9,1,0.69,12,17,-1.2,-8.2,-0.5,nt,i
COc1ccc(CNC(=O)C[C@H]2C[C@H](C(=O)N3CCCCC3)[C@@]3(C)c4[nH]c5ccc(Cl)cc5c4CCN3C2=O)cc1OC,0.4,nt,0.7,-22,-33,0.1,6.3,nt,nt,i
O=c1c2ccccc2nc2n1CCS2,5.8,-6,0.64,nt,nt,nt,nt,0.5,-4,nt
CCCc1cc(=O)[nH]c(SCC(=O)Nc2ccc(C)c(S(=O)(=O)N3CCCCC3)c2)n1,-2.7,-3,0.66,5,-1,-3.1,-1.6,1.4,nt,i
CC(C)(C)c1ccccc1NC(=O)N1CCNC(=O)C1CC(=O)Nc1ccc(F)cc1 (centres undefined),1.3,-3,0.69,0,-1,0.8,-1.6,-0.6,-3,i
# Carrying on:
SMILES,UCH37 DUB inh,Beta apoptosis,Ecoli growth,Ecoli rRNA inh,Ecoli rRNA inh OD600,Ecoli rRNA inh RFP,MLL AF4-AF9 inh,Bfl-1 A1 inh,T cruzi inh,FGF22 binding
Nc1nccnc1C(=O)OCC(=O)NC1CCCc2ccccc21 (centres undefined),-433,3,0.71,1,-3,0.1,1.7,-0.6,nt,i
CCOC(=O)CC1C(=O)NCCN1S(=O)(=O)c1ccccc1Cl (centres undefined),3.1,2,0.71,nt,nt,nt,nt,-0.3,1,nt
COCCNC(=O)c1cccc2c1C(=O)c1ccc(N3CCOCC3)cc1S2(=O)=O,4.8,-4,0.7,7,7,-1.6,-18,-0.1,nt,i
CN(CCOc1ccccc1)C(=O)c1cc(S(=O)(=O)N2CCOCC2)ccc1Cl,4.5,0,0.64,0,6,1.6,-3.5,-0.2,5,i
N#C/C(=C/c1ccc(Sc2nc3ccccc3[nH]2)o1)c1cccc(F)c1,-9.4,-3,0.68,nt,nt,nt,nt,0.6,-1,nt
CC(=O)c1ccc(OCC(=O)Nc2ccc3c(c2)CCC3)cc1,2.2,0,0.7,-26*,-9.3*,4.8*,-3.3,0.1,nt,i
Cc1ccccc1S(=O)(=O)N1[C@@H](c2cccc(Cl)c2)C(C(=O)O)=CC[C@H]1c1ccc(Cl)cc1,0.4,3,nt,-39,-56,0.9,-0.2,-0.7,nt,i
CC(C)CN(C(=O)COC(=O)CSc1ccc([N+](=O)[O-])cc1)C1CCS(=O)(=O)C1 (centres undefined),7.6,-10,0.68,6,7,-0.4,-22,0.6,-14,i
O=C(Nc1cccc(S(=O)(=O)N2CCCC2)c1)C1CCCN1C(=O)c1cccs1 (centres undefined),3.9,-6,0.69,0,1,-5.2,10,0.7,8,i

# Part of the list above, limited to MLL AF4-AF9 inh, FGF22 binding and Bfl-1 A1 inh:
SMILES,MLL AF4-AF9 inh,FGF22 binding,Bfl-1 A1 inh
O=C(/C=C/c1ccnc2ccccc12)c1cccs1,1.0,i,-5.3
O=C(NCC1CCS(=O)(=O)C1)Oc1ccccc1 (centres undefined),nt,nt,-1.4
CCN(CC)CCNC(=O)C1c2ccccc2C(=O)N(C)C1c1cn(C)c2ccccc12 (centres undefined),nt,nt,-0.5
CCCc1nnc(NC(=O)CCC(=O)N2CCN(Cc3ccc(Cl)cc3)CC2)s1,0.7,i,-1.1

# Screening data as filed in PubChem.
